# High-throughput results deposited in PubChem BioAssay by Broad Institute.
# UUG fidelity: yeast start codon fidelity modulation | S. cerevisiae UUG-firefly luciferase reporter, luminescence/redox ratio | activity score, % at 18.7 µM | actives 0.13% (n = 350,000) | AID 602363;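 active = replicate mean at a twofold rise or more, about +100% in these data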;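 note: firefly luciferase made from a UUG start codon reports start codon fidelity; reporter light over untreated wells divided by growth signal over untreated wells; some hits fall short of that in this replicate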
# HIV Env fusion: HIV envelope-mediated fusion inhibition | HeLa-JRFL Env/CEM21 cell fusion, luciferase | inhibition, % at 12.3 µM | actives 1.1% (n = 360,000) | AID 651610;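 active = mean replicate inhibition score of at least 50 and every replicate individually at or above 50; inconclusive = only one of the two criteria met; inactive = mean below 50 and not all replicates reaching 50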;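 note: 0% = plate neutral controls and 100% = maraviroc near 300 nM; one replicate is shown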
# * marks the source's active call; other numbers are inactive results; ? = inconclusive; [ ] = dose if it differs, or a comment. A portion of the library; count on the stated rates, not on these rows.
UUG fidelity,HIV Env fusion,Structure
-25,3[16.7 µM],C[C@@H]1CCCCO[C@H](CN(C)C(=O)C2CCCCC2)[C@@H](C)CN([C@@H](C)CO)C(=O)c2cc(NC(=O)Nc3cccc4ccccc34)ccc2O1
6,4[16.7 µM],Cc1noc(C)c1S(=O)(=O)N(C)C[C@H]1OCCCC[C@H](C)Oc2ccc(NS(=O)(=O)c3ccccc3)cc2C(=O)N([C@@H](C)CO)C[C@@H]1C
-14,-2[16.7 µM],COc1ccc(-c2ccc([C@@H]3[C@@H](C#N)N(C(=O)c4cccc(F)c4)[C@H]3CO)cc2)cc1
-8,-17[16.7 µM],CCCC(=O)Nc1ccc2c(c1)OC[C@@H](C)N(C(=O)CC)C[C@@H](C)[C@@H](OC)CN(C)C2=O
6,8[16.7 µM],Cc1ccc(S(=O)(=O)Nc2ccc3c(c2)CC(=O)N([C@@H](C)CO)C[C@H](C)[C@@H](CN(C)S(=O)(=O)c2c(C)noc2C)O3)cc1
1,0[16.7 µM],CCCNC(=O)Nc1ccc2c(c1)OC[C@@H](C)NC[C@H](C)[C@H](OC)CN(C)C2=O
-24,9[16.7 µM],Cc1ccc(S(=O)(=O)NCC[C@H]2CC[C@@H](NC(=O)NC(C)C)[C@H](CO)O2)cc1
2,16[16.7 µM],CC(=O)N(C)C[C@H]1Oc2cc(C3=CCCC3)ccc2S(=O)(=O)N([C@@H](C)CO)C[C@H]1C
-6,-7[16.7 µM],O=C(Nc1ccc2c(c1)OCO2)N[C@H]1CC[C@H](CCNC(=O)C2CC2)O[C@H]1CO
3,-21[16.7 µM],C=CCNC(=O)[C@H]1[C@@H]2C(=O)O[C@@H](c3ccccc3)[C@@H](c3ccccc3)N2[C@@H](c2ccccc2OCCO)[C@]12C(=O)Nc1ccc(C#CCC(C(=O)OC)C(=O)OC)cc12
9,14[16.7 µM],Cc1ccc(S(=O)(=O)N[C@@H]2CC[C@H](CCNC(=O)Nc3ccc(Cl)cc3)O[C@H]2CO)cc1
-14,16[16.7 µM],COc1ccc(S(=O)(=O)Nc2ccc3c(c2)C(=O)N([C@H](C)CO)C[C@H](C)[C@@H](CN(C)S(=O)(=O)c2c(C)noc2C)OCCCC[C@H](C)O3)cc1
-2,11[16.7 µM],CC(C)CC#Cc1ccc2c(c1)O[C@H](CN(C)Cc1ccc3c(c1)OCO3)[C@@H](C)CN([C@@H](C)CO)S2(=O)=O
-8,-6[16.7 µM],C[C@H](CO)N1C[C@H](C)[C@H](CN(C)Cc2cccnc2)Oc2ncc(-c3ccc(C#N)cc3)cc2C1=O
3,6[16.7 µM],N#C[C@H]1[C@@H](c2ccccc2)[C@@H](CO)N1C(=O)c1cc(Cl)cc(Cl)c1
-2,-3[16.7 µM],O=C(C[C@H]1C[C@@H]2c3cc(NC(=O)NC4CCCC4)ccc3O[C@@H]2[C@H](CO)O1)NCCN1CCCCC1
18,-22[16.7 µM],C[C@H](CO)N1C[C@H](C)[C@@H](CN(C)C(=O)CCCN(C)C)OCCCC[C@H](C)Oc2ccc(NC(=O)Nc3ccc(C(F)(F)F)cc3)cc2C1=O
4,-37[16.7 µM],CN1C(=O)c2cc(NC(=O)C3CC3)ccc2OC[C@@H]2O[C@@H](CC(=O)NCc3cccc(F)c3)CC[C@H]21
-1,26[16.7 µM],C[C@@H]1CN([C@H](C)CO)C(=O)c2cc(NS(=O)(=O)c3cccs3)ccc2O[C@@H]1CN(C)C(=O)Nc1ccc(F)cc1
7,17[16.7 µM],COCCNC(=O)C[C@H]1C[C@@H]2c3cc(NC(=O)c4ccc5c(c4)OCO5)ccc3O[C@@H]2[C@@H](CO)O1
-7,-14[16.7 µM],C[C@@H]1CN([C@H](C)CO)S(=O)(=O)c2ccc(C#C[C@@H](C)O)cc2O[C@H]1CN(C)Cc1ccccc1
-13,2[16.7 µM],COCc1cn(CC[C@@H]2CC[C@H](NC(=O)Cc3cccnc3)[C@H](CO)O2)nn1
-4,-10[16.7 µM],C[C@@H]1CN([C@H](C)CO)C(=O)Cc2cc(NC(=O)Cc3ccccc3)ccc2O[C@H]1CN(C)C(=O)NC1CCCCC1
-14,-2[16.7 µM],O=C(C[C@@H]1CC[C@@H](NC(=O)Nc2cc(F)ccc2F)[C@H](CO)O1)Nc1ccc(-c2ccccc2)cc1
-1,23[16.7 µM],CC(C)NC(=O)Nc1ccc2c(c1)C(=O)N([C@H](C)CO)C[C@H](C)[C@H](CN(C)S(=O)(=O)c1ccc(F)cc1)OCCCC[C@@H](C)O2

# 7 neighbouring records from above, quoted:
UUG fidelity,HIV Env fusion,Structure
-1,26[16.7 µM],C[C@@H]1CN([C@H](C)CO)C(=O)c2cc(NS(=O)(=O)c3cccs3)ccc2O[C@@H]1CN(C)C(=O)Nc1ccc(F)cc1
7,17[16.7 µM],COCCNC(=O)C[C@H]1C[C@@H]2c3cc(NC(=O)c4ccc5c(c4)OCO5)ccc3O[C@@H]2[C@@H](CO)O1
-7,-14[16.7 µM],C[C@@H]1CN([C@H](C)CO)S(=O)(=O)c2ccc(C#C[C@@H](C)O)cc2O[C@H]1CN(C)Cc1ccccc1
-13,2[16.7 µM],COCc1cn(CC[C@@H]2CC[C@H](NC(=O)Cc3cccnc3)[C@H](CO)O2)nn1
-4,-10[16.7 µM],C[C@@H]1CN([C@H](C)CO)C(=O)Cc2cc(NC(=O)Cc3ccccc3)ccc2O[C@H]1CN(C)C(=O)NC1CCCCC1
-14,-2[16.7 µM],O=C(C[C@@H]1CC[C@@H](NC(=O)Nc2cc(F)ccc2F)[C@H](CO)O1)Nc1ccc(-c2ccccc2)cc1
-1,23[16.7 µM],CC(C)NC(=O)Nc1ccc2c(c1)C(=O)N([C@H](C)CO)C[C@H](C)[C@H](CN(C)S(=O)(=O)c1ccc(F)cc1)OCCCC[C@@H](C)O2

# Continued:
UUG fidelity,HIV Env fusion,Structure
-3,-10[16.7 µM],C[C@@H]1CN([C@H](C)CO)C(=O)c2cc(-c3cccc(C(=O)N(C)C)c3)cnc2O[C@H]1CN(C)C
16,8[16.7 µM],C[C@H]1CCCCO[C@H](CN(C)C(=O)CCC(F)(F)F)[C@@H](C)CN([C@@H](C)CO)C(=O)c2cc(NC(=O)c3ccncc3)ccc2O1
-1,-3[16.7 µM],C[C@H]1CN([C@@H](C)CO)C(=O)c2cc(NC(=O)Nc3ccc4c(c3)OCO4)ccc2O[C@@H]1CN(C)C(=O)Nc1ccccc1
30,2[16.7 µM],COc1ccc(NC(=O)Nc2ccc3c(c2)CC(=O)N([C@H](C)CO)C[C@H](C)[C@@H](CN(C)Cc2ccc4c(c2)OCO4)O3)cc1
28,19[16.7 µM],C=CC[C@@]12N=C(c3ccc(OCCCO)cc3)O[C@@H]1c1ccccc1CN(CCS(=O)(=O)c1ccccc1)C2=O
8,7[16.7 µM],CCCC(=O)Nc1ccc2c(c1)OC[C@H](C)N(C(C)=O)C[C@@H](C)[C@H](OC)CN(C)C2=O
-3,7[16.7 µM],Cc1ccc(S(=O)(=O)N(C)C[C@H]2OCCCC[C@H](C)Oc3ccc(NS(=O)(=O)c4cccs4)cc3C(=O)N([C@H](C)CO)C[C@H]2C)cc1
-8,-22[16.7 µM],O=C(CCN1CCCCC1)N[C@H]1CC[C@H](CCn2cc(-c3ccccc3)nn2)O[C@H]1CO
7,4[16.7 µM],COc1ccc(CNC(=O)C[C@H]2CC[C@H](NC(=O)c3cccc(F)c3)[C@H](CO)O2)cc1
-16,?,C[C@H](CO)N1C[C@H](C)[C@@H](CN(C)S(=O)(=O)c2ccc(F)cc2)Oc2cc(-c3cccc(F)c3)ccc2S1(=O)=O
15,4[16.7 µM],C/C=C/c1cnc2c(c1)C(=O)N([C@H](C)CO)C[C@@H](C)[C@H](CN(C)C(=O)Nc1cccc(OC)c1)O2
22,17[16.7 µM],Cc1ccc(-c2cnc3c(c2)C(=O)N([C@H](C)CO)C[C@@H](C)[C@H](CN(C)C(=O)Cc2ccccc2)O3)cc1
7,-4[16.7 µM],CC(C)NC(=O)N(C)C[C@H]1Oc2ccc(NC(=O)Nc3ccc4c(c3)OCO4)cc2CC(=O)N([C@H](C)CO)C[C@@H]1C
-2,-7[16.7 µM],O=C(Nc1ccccc1F)N[C@H]1C=C[C@H](CC(=O)N2CCCCC2)O[C@@H]1CO
6,-13[16.7 µM],O=C(C[C@@H]1C=C[C@H](NC(=O)NC2CCCCC2)[C@@H](CO)O1)NCc1ccc(F)cc1
8,-40[16.7 µM],C[C@@H]1CN([C@@H](C)CO)S(=O)(=O)c2ccc(C#CC3(O)CCCC3)cc2O[C@H]1CN(C)C(=O)c1ccccc1
-6,-4[16.7 µM],C[C@H](CO)N1C[C@H](C)[C@@H](CN(C)S(=O)(=O)c2ccc(Cl)cc2)Oc2c(NC(=O)c3nc4ccccc4s3)cccc2C1=O
15,14[16.7 µM],C[C@@H]1CN([C@H](C)CO)C(=O)c2cccc(NC(=O)c3ccc(-c4nccs4)cc3)c2O[C@@H]1CN(C)S(=O)(=O)c1cn(C)cn1
0,-4[16.7 µM],CC(=O)N(C)C[C@H]1Oc2ncc(-c3ccc(C#N)cc3)cc2C(=O)N([C@@H](C)CO)C[C@@H]1C
-6,-10[16.7 µM],C/C=C/c1ccc2c(c1)O[C@H](CN(C)C(=O)NC(C)C)[C@@H](C)CN([C@@H](C)CO)S2(=O)=O
-15,-14[16.7 µM],CCCNC(=O)C[C@@H]1C[C@@H]2c3cc(NC(=O)c4cccnc4)ccc3O[C@@H]2[C@H](CO)O1
7,-10[16.7 µM],Cc1noc(C)c1S(=O)(=O)Nc1ccc2c(c1)C(=O)N([C@H](C)CO)C[C@@H](C)[C@@H](CN(C)C(=O)Nc1cccc3ccccc13)OCCCC[C@@H](C)O2
-2,7[16.7 µM],C[C@@H]1CN([C@@H](C)CO)C(=O)Cc2cc(NS(=O)(=O)c3cccs3)ccc2O[C@@H]1CN(C)C(=O)Nc1ccc(F)cc1
8,4[16.7 µM],C[C@H](CO)N1C[C@H](C)[C@H](CN(C)C(=O)Nc2ccccc2)Oc2ccc(NC(=O)Nc3ccc(C(F)(F)F)cc3)cc2CC1=O
16,6[16.7 µM],O=C(Nc1ccccc1)Nc1ccc2c(c1)[C@@H]1C[C@@H](CC(=O)N3CCCCC3)O[C@H](CO)[C@@H]1O2

# Next entries.
UUG fidelity,HIV Env fusion,Structure
-2,-3[16.7 µM],C[C@@H](NC(=O)C[C@H]1C=C[C@@H](NS(=O)(=O)c2cccc(F)c2)[C@@H](CO)O1)c1ccccc1
-4,5[16.7 µM],CN1CCN(C(=O)C[C@@H]2C=C[C@H](NC(=O)c3ccc4c(c3)OCO4)[C@@H](CO)O2)CC1
-9,-6[16.7 µM],Cc1noc(C)c1NC(=O)N[C@H]1C=C[C@H](CC(=O)Nc2ccc(-c3ccccc3)cc2)O[C@H]1CO
-1,7[16.7 µM],COCC(=O)N(C)C[C@H]1Oc2ncc(C#CC3(O)CCCC3)cc2C(=O)N([C@H](C)CO)C[C@H]1C
-6,1[16.7 µM],C[C@@H]1CN([C@H](C)CO)C(=O)c2cccc(NS(C)(=O)=O)c2O[C@@H]1CN(C)Cc1ccc(C(=O)Nc2ccccc2N)cc1
10,-6[16.7 µM],Cc1noc(C)c1NC(=O)Nc1ccc2c(c1)C(=O)N([C@H](C)CO)C[C@@H](C)[C@H](CN(C)Cc1ccc3c(c1)OCO3)OCCCC[C@@H](C)O2
23,-27[16.7 µM],C[C@@H]1CN([C@@H](C)CO)C(=O)c2cc(NS(=O)(=O)c3ccc(F)cc3)ccc2O[C@@H](C)CCCCO[C@H]1CN(C)Cc1ccccc1
2,-12[16.7 µM],CO[C@H]1CN(C)C(=O)c2cc(NS(=O)(=O)c3ccccc3C)ccc2OC[C@@H](C)N(C)C[C@@H]1C
-1,-5[16.7 µM],CC(=O)N(C)C[C@H]1Oc2cc(C#C[C@@H](C)O)ccc2S(=O)(=O)N([C@@H](C)CO)C[C@@H]1C
-5,1[16.7 µM],C[C@@H]1CN([C@@H](C)CO)C(=O)Cc2cc(NC(=O)Cn3cnnn3)ccc2O[C@@H]1CN(C)C
-2,13[16.7 µM],CCCNC(=O)N1C[C@@H](C)[C@@H](OC)CN(C)C(=O)c2ccc(NC(C)=O)cc2OC[C@@H]1C
12,-2[16.7 µM],C[C@H]1CN([C@@H](C)CO)C(=O)c2cccc(NC(=O)c3ccncc3)c2O[C@@H]1CN(C)Cc1ccc(C(=O)Nc2ccccc2N)cc1
2,-2[16.7 µM],O=C(C[C@@H]1CC[C@H](NC(=O)Nc2ccc(F)cc2)[C@@H](CO)O1)NCCN1CCCC1
33,0[16.7 µM],COc1ccc(CN(C)C[C@@H]2OCCCC[C@@H](C)Oc3ccc(NC(=O)CCC(F)(F)F)cc3C(=O)N([C@@H](C)CO)C[C@H]2C)cc1
4,6[16.7 µM],O=S(=O)(N[C@@H]1CC[C@@H](CCn2cc(-c3ccccc3F)nn2)O[C@@H]1CO)c1ccc(Cl)cc1
14,6[16.7 µM],N#C[C@H]1[C@@H](c2ccc(C#Cc3ccc(F)cc3)cc2)[C@H](CO)N1C(=O)C1CC1
29,10[16.7 µM],COc1cccc(C#Cc2ccc3c(c2)O[C@@H](CN(C)C(=O)CN2CCOCC2)[C@@H](C)CN([C@H](C)CO)S3(=O)=O)c1
-4,20[16.7 µM],CCCN(C)C[C@@H]1Oc2cc(C#Cc3cccnc3)ccc2S(=O)(=O)N([C@@H](C)CO)C[C@H]1C
-13,-7[16.7 µM],C[C@H]1CN([C@@H](C)CO)C(=O)c2cc(N(C)C)ccc2O[C@H]1CN(C)Cc1ccncc1
3,29[16.7 µM],C[C@H](CO)N1C[C@H](C)[C@H](CN(C)Cc2ccc(C(F)(F)F)cc2)Oc2ccc(N(C)C)cc2CC1=O
